# Screening data: PubChem, Broad Institute
# MLL AF4-AF9 inh: inhibitors of AF4 peptide binding to AF9, primary screen, biochemical, AlphaScreen, biotin-AF4 peptide, FLAG-AF9, single point; inhibition, % at 10 µM; 0.47% of 350,000 active;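 active = every replicate reaching a set inhibition limit, whatever the replicate mean, cut at about 25% in these data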;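 note: 0% = plate neutral control median and 100% = total signal loss; the record names both 10 and 1 µM as test concentration; the first replicate is given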
# Target sequence (P42568 whole entry, looked up): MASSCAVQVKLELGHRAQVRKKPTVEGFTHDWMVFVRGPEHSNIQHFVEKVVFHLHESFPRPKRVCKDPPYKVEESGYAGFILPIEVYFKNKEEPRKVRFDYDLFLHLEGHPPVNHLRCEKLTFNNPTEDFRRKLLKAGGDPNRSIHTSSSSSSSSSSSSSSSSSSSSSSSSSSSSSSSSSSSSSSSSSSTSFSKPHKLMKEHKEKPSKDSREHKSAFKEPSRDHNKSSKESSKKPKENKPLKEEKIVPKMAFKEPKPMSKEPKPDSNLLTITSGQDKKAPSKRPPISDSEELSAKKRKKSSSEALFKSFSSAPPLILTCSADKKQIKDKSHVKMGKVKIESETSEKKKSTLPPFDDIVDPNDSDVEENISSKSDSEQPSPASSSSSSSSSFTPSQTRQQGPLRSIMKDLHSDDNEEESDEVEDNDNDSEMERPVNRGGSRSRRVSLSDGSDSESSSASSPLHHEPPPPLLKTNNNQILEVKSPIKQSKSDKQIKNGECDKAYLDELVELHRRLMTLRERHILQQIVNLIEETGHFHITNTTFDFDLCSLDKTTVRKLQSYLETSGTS
# FGF22 binding: binders of human FGF22 protein, primary screen, FGF22 synaptogenesis inhibitor project, biophysical, thermal shift, single point; Fibroblast growth factor 22 (Homo sapiens), Q9HCT0; recombinant FGF22 thermal shift, SYPRO orange fluorescence; percent of sucrose octasulfate shift, DMSO zero; calls only at 9.99 µM; 1.5% of 340,000 active;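 active = melting point raised past a set limit in the mean and every replicate; three in four hits are not shown here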
# Target sequence (Q9HCT0 whole entry, looked up): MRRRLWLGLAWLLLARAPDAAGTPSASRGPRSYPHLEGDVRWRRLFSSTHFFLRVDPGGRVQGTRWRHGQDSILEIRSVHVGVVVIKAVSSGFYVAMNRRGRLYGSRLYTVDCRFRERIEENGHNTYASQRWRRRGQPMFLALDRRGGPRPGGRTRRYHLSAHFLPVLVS
# * marks the source's active call; other numbers are inactive results; i = inactive.
SMILES,MLL AF4-AF9 inh,FGF22 binding
C[C@@H]1CN([C@@H](C)CO)C(=O)c2cc(NC(=O)NC3CCCCC3)ccc2O[C@@H](C)CCCCO[C@@H]1CN(C)C,-1.8,i
COC(=O)c1cc2c(c3c4cc(C)ccc4n(S(=O)(=O)c4cccc(C)c4)c13)C(=O)N(Cc1ccc(C(F)(F)F)cc1)C2,-1.6,i
C[C@H](CO)N1C[C@H](C)[C@H](CN(C)C(=O)C2CCOCC2)Oc2ncc(-c3cccnc3)cc2C1=O,1.0,i
C[C@@H]1CN([C@@H](C)CO)C(=O)c2cc(NC(=O)c3ccncc3)ccc2O[C@@H]1CN(C)Cc1ccccc1,-0.6,i
CC(C)NC(=O)N1C[C@@H]2[C@H](c3ccccc31)[C@H](CO)N2C(=O)NC(C)C,1.3,i
CCCN(C)C[C@H]1Oc2ncc(C#CCC(C)C)cc2C(=O)N([C@@H](C)CO)C[C@H]1C,0.4,i
C[C@@H]1CN([C@@H](C)CO)C(=O)c2cccc(NC(=O)Nc3ccc(F)cc3)c2O[C@H]1CN(C)CC1CC1,-5.8,i
C[C@@H]1CN([C@H](C)CO)C(=O)Cc2cc(NC(=O)C3CCCCC3)ccc2O[C@H]1CN(C)C(=O)Nc1ccc(F)cc1,-1.6,i
CCC(=O)N1CCC2(CC1)CN(Cc1ccccc1Cl)[C@@H](CO)c1c2c2ccc(OC)cc2n1C,2.8,i
O=C(Cc1ccccn1)NCC[C@@H]1CC[C@@H](NS(=O)(=O)c2ccc(Cl)cc2)[C@@H](CO)O1,0.1,i
C[C@@H]1CN([C@H](C)CO)C(=O)c2cccc(NC(=O)c3ccc(-c4nccs4)cc3)c2O[C@H]1CN(C)S(=O)(=O)c1cccs1,-2.4,i
C[C@@H]1CN([C@@H](C)CO)C(=O)c2cc(NS(=O)(=O)c3cn(C)cn3)ccc2O[C@@H](C)CCCCO[C@H]1CN(C)Cc1ccncc1,-4.1,i
C[C@@H]1CN([C@H](C)CO)C(=O)c2cc(C#C[C@@H](C)O)cnc2O[C@@H]1CN(C)C(=O)c1ccccc1F,0.1,i
CO[C@H]1CN(C)C(=O)c2cc(NC(C)=O)ccc2OC[C@@H](C)N(C(=O)CN2CCOCC2)C[C@H]1C,-0.1,i
CC(C)NC(=O)N[C@@H]1C=C[C@@H](CC(=O)NCc2ccc(Oc3ccccc3)cc2)O[C@H]1CO,-1.1,i
CCCN1[C@@H]2Cn3c(ccc(-c4ccccc4)c3=O)[C@H]1[C@@H](C(=O)NCC)[C@@H]2CO,-0.7,i
C[C@H](CO)N1C[C@H](C)[C@H](CN(C)Cc2ccncc2)Oc2ccc(NC(=O)C3CC3)cc2C1=O,-7.3,i
COC(=O)CCCCCCC(=O)Nc1ccc(C2OC(CSc3ccccn3)CC(c3ccccc3)O2)cc1 (stereo not given),-2.4,i
CO[C@@H](C(=O)N(C)C[C@H]1OCc2ccccc2-c2c(n(C)c3ccccc23)C(=O)N([C@@H](C)CO)C[C@@H]1C)c1ccccc1,-13,i
CO[C@H]1CN(C)C(=O)c2ccc(NS(C)(=O)=O)cc2OC[C@H](C)N(C(=O)C2CCC2)C[C@@H]1C,-1.8,i
C[C@@H]1CN([C@@H](C)CO)C(=O)c2cccc(NS(C)(=O)=O)c2O[C@@H]1CN(C)CC1CCCCC1,-0.2,i
C[C@H]1CN([C@@H](C)CO)S(=O)(=O)c2ccc(/C=C/c3ccccc3)cc2O[C@@H]1CN(C)C(=O)c1cccnc1,5.6,i
C[C@H]1CN([C@@H](C)CO)C(=O)c2cccc(NS(=O)(=O)c3ccccc3)c2O[C@H]1CN(C)C(=O)NC1CCCCC1,-1.4,i
C[C@@H]1CN([C@H](C)CO)C(=O)c2c(c3ccccc3n2C)-c2ccccc2CO[C@@H]1CN(C)S(=O)(=O)c1ccccc1,4.6,i
C[C@@H]1CN([C@H](C)CO)C(=O)c2cc(C#CCN(C)C)cnc2O[C@H]1CN(C)C(=O)CCN1CCCCC1,-0.2,i

# Some of the entries so far, with bars between the fields:
SMILES | MLL AF4-AF9 inh | FGF22 binding
C[C@@H]1CN([C@@H](C)CO)C(=O)c2cc(NC(=O)NC3CCCCC3)ccc2O[C@@H](C)CCCCO[C@@H]1CN(C)C | -1.8 | i
CO[C@H]1CN(C)C(=O)c2ccc(NS(C)(=O)=O)cc2OC[C@H](C)N(C(=O)C2CCC2)C[C@@H]1C | -1.8 | i
COC(=O)c1cc2c(c3c4cc(C)ccc4n(S(=O)(=O)c4cccc(C)c4)c13)C(=O)N(Cc1ccc(C(F)(F)F)cc1)C2 | -1.6 | i
C[C@@H]1CN([C@H](C)CO)C(=O)c2cccc(NC(=O)c3ccc(-c4nccs4)cc3)c2O[C@H]1CN(C)S(=O)(=O)c1cccs1 | -2.4 | i
C[C@@H]1CN([C@@H](C)CO)C(=O)c2cccc(NC(=O)Nc3ccc(F)cc3)c2O[C@H]1CN(C)CC1CC1 | -5.8 | i

# Other results follow:
SMILES,MLL AF4-AF9 inh,FGF22 binding
O=C(Cc1ccccc1)N[C@@H]1C=C[C@@H](CC(=O)N2CCCCC2)O[C@@H]1CO,-13,i
COc1ccc(CN(C)C[C@@H]2Oc3ccc(NC(=O)C4CC4)cc3C(=O)N([C@@H](C)CO)C[C@H]2C)cc1,-0.9,i
C[C@@H]1CN([C@@H](C)CO)C(=O)c2cc(C#Cc3ccccc3)cnc2O[C@@H]1CN(C)CC1CCOCC1,4.2,i
C[C@H]1CN([C@@H](C)CO)C(=O)c2cc(C#CC(C)(C)O)cnc2O[C@@H]1CN(C)Cc1ccccn1,-4.8,i
COCCNC(=O)C[C@H]1C[C@@H]2c3cc(NC(=O)Nc4ccc(C(F)(F)F)cc4)ccc3O[C@@H]2[C@@H](CO)O1,8.9,i
CCN=C1NC(c2cccc(F)c2)C(C(=O)OC)=C(C)N1Cc1ccccc1C(F)(F)F (stereo not given),-0.8,i
COc1ccccc1-c1cn(CC[C@@H]2CC[C@@H](NC(=O)C3CC3)[C@H](CO)O2)nn1,-0.8,i
C[C@H](O)C#Cc1ccc2c(c1)O[C@@H](CN(C)C(=O)CC1CC1)[C@@H](C)CN([C@H](C)CO)S2(=O)=O,0.8,i
C[C@H](CO)N1C[C@H](C)[C@H](CN(C)C(=O)Nc2ccc(F)cc2)Oc2cc(-c3cccc(C(=O)N(C)C)c3)ccc2S1(=O)=O,6.5,i
CO[C@@H]1CC[C@H]2CCN(C)C(=O)[C@H](C)N(C)C(=O)c3cccc(C#N)c3OC[C@@H]1O2,2.0,i
O=C(C[C@H]1CC[C@H]2[C@@H](COC[C@@H](O)CN2C(=O)Nc2ccc(C(F)(F)F)cc2)O1)NC1Cc2ccccc2C1,-4.3,i
CCCNC(=O)N1C[C@H](O)COC[C@@H]2O[C@H](CC(=O)NCc3ccncn3)CC[C@H]21,4.0,i
O=C(C[C@@H]1C[C@@H]2c3cc(NC(=O)CC4CC4)ccc3O[C@@H]2[C@H](CO)O1)NCCc1ccccc1,-1.6,i
COC(=O)C[C@@H]1C=C[C@H](NS(=O)(=O)c2ccccc2F)[C@@H](CO)O1,-1.1,i
O=C(N[C@@H]1CC[C@@H](CCn2cc(C3CCCCC3)nn2)O[C@H]1CO)c1cccnc1,-1.1,i
C[C@@H]1CN([C@@H](C)CO)C(=O)c2cccc(NC(=O)Nc3ccc4c(c3)OCO4)c2O[C@H]1CN(C)S(=O)(=O)c1ccc(F)cc1,2.1,i
O=C(C[C@@H]1CC[C@H]2[C@@H](COC[C@@H](O)CN2Cc2ccccc2)O1)N[C@@H]1CCN(Cc2ccccc2)C1,2.5,i
C[C@H]1CN([C@@H](C)CO)C(=O)Cc2cc(NC(=O)Cc3ccccc3)ccc2O[C@@H]1CN(C)C(=O)Nc1ccc(F)cc1,-1.7,i
O=C(NCC[C@H]1CC[C@H](NC(=O)C2CC2)[C@H](CO)O1)Nc1ccc(Cl)cc1,4.6,i
C[C@H]1CN([C@@H](C)CO)S(=O)(=O)c2ccc(C#Cc3ccc(F)cc3)cc2O[C@@H]1CN(C)C(=O)NC1CCCC1,-0.5,i
COc1ccccc1S(=O)(=O)N(C)C[C@@H]1OCc2ccccc2-c2ccccc2C(=O)N([C@H](C)CO)C[C@@H]1C,-3.6,i
C[C@H]1CN([C@@H](C)CO)C(=O)c2cc(NC(=O)Nc3cccc4ccccc34)ccc2O[C@@H]1CN(C)S(C)(=O)=O,1.7,i
C[C@@H]1CN([C@@H](C)CO)C(=O)Cc2cc(NC(=O)CCC(F)(F)F)ccc2O[C@H]1CN(C)C(=O)NC1CCCCC1,-1.9,i
CCC(=O)N[C@@H]1CC[C@@H](CC(=O)NCc2ccccc2OC)O[C@@H]1CO,-4.0,i
CCC(=O)N1CC2(CCN(Cc3ccncc3)CC2)c2c(n(C)c3cc(OC)ccc23)[C@@H]1CO,-0.1,i

# An excerpt of these results, bar-delimited:
structure | MLL AF4-AF9 inh | FGF22 binding
O=C(C[C@H]1CC[C@H]2[C@@H](COC[C@@H](O)CN2C(=O)Nc2ccc(C(F)(F)F)cc2)O1)NC1Cc2ccccc2C1 | -4.3 | i
C[C@H]1CN([C@@H](C)CO)C(=O)Cc2cc(NC(=O)Cc3ccccc3)ccc2O[C@@H]1CN(C)C(=O)Nc1ccc(F)cc1 | -1.7 | i
CCC(=O)N[C@@H]1CC[C@@H](CC(=O)NCc2ccccc2OC)O[C@@H]1CO | -4.0 | i

# Additional records.
SMILES,MLL AF4-AF9 inh,FGF22 binding
CCCNC(=O)N1[C@H](C#N)[C@H](c2ccccc2)[C@H]1CO,0.8,i
CCC(=O)N1C[C@H](O)COC[C@@H]2O[C@H](CC(=O)NCC3CCCCC3)CC[C@H]21,0.1,i
COC(=O)[C@]12C[C@H](CC(=O)NCCC(C)C)C(=O)N(Cc3ccccc3)C1=C[C@H](C1CCCC1)O[C@@H]2C,1.3,i
O=C(C[C@@H]1C[C@@H]2c3cc(NC(=O)c4ccc5c(c4)OCO5)ccc3O[C@@H]2[C@@H](CO)O1)NCc1ccc(Cl)cc1,2.2,i
C/C=C/c1ccc2c(c1)O[C@@H](CN(C)C(=O)Nc1cccc(F)c1)[C@H](C)CN([C@@H](C)CO)S2(=O)=O,3.4,i
CCN1[C@@H]2c3ccc(-c4ccccc4F)c(=O)n3C[C@H]1[C@H](CO)[C@H]2C(=O)N1CCCCC1,-2.1,i
C[C@H]1CN([C@@H](C)CO)S(=O)(=O)c2ccc(-c3cccc(F)c3)cc2O[C@H]1CN(C)C(=O)c1cccc(F)c1,0.9,i
Cc1noc(C)c1NC(=O)Nc1ccc2c(c1)C(=O)N([C@@H](C)CO)C[C@@H](C)[C@@H](CN(C)C(=O)Nc1ccc(C(F)(F)F)cc1)OCCCC[C@@H](C)O2,0.4,i
C[C@H](CO)N1C[C@H](C)[C@@H](CN(C)S(=O)(=O)c2ccc(Cl)cc2)OCCCC[C@H](C)Oc2ccc(NC(=O)CCCN(C)C)cc2C1=O,11,i
CN(C)CCCNC(=O)C[C@H]1CC[C@@H]2[C@@H](COc3ccc(NC(=O)c4ccc5c(c4)OCO5)cc3C(=O)N2C)O1,-0.8,i
Cc1noc(C)c1NC(=O)Nc1ccc2c(c1)C(=O)N([C@H](C)CO)C[C@@H](C)[C@@H](CN(C)Cc1ccc(C(F)(F)F)cc1)OCCCC[C@@H](C)O2,13,i
O=C(NCC[C@@H]1CC[C@@H](NS(=O)(=O)Cc2ccccc2)[C@H](CO)O1)C1CCC1,0.4,i
COc1cccc(-c2ccc3n(c2=O)C[C@H]2[C@H](CO)[C@@H](C(=O)NC4CCCC4)[C@@H]3N2C)c1,-0.1,i
CO[C@H]1CN(C)C(=O)c2ccc(NS(=O)(=O)c3ccccc3)cc2OC[C@@H](C)N(C)C[C@H]1C,-1.5,i
C[C@@H]1CN([C@@H](C)CO)C(=O)c2cccc(NC(=O)c3nc4ccccc4s3)c2O[C@H]1CN(C)Cc1ccc(C(=O)O)cc1,-3.5,i
C[C@H]1CN([C@@H](C)CO)C(=O)c2cc(Br)cnc2O[C@H]1CN(C)Cc1cccc(F)c1,-1.1,i
O=C(Nc1ccccc1)N1CCCCN2[C@H](CO)[C@H](c3ccc(Br)cc3)[C@H]2C1,-0.3,i
C[C@H](CO)N1C[C@H](C)[C@@H](CN(C)CC2CCCCC2)Oc2ccc(NC(=O)Cn3cnnn3)cc2CC1=O,4.8,i
C/C=C/c1ccc([C@@H]2[C@H](CO)N(C(=O)CC)[C@H]2CNC(=O)C2CC2)cc1,-1.4,i
CC(C)NC(=O)N(C)C[C@@H]1Oc2c(NC(=O)Nc3ccc(C(F)(F)F)cc3)cccc2C(=O)N([C@H](C)CO)C[C@H]1C,-2.1,i
O=C(Nc1ccccc1F)N[C@H]1CC[C@H](CC(=O)N2CCCCC2)O[C@H]1CO,-1.4,i
C[C@@H]1CN([C@@H](C)CO)C(=O)Cc2cc(NC(=O)Cc3cn(C)c4ccccc34)ccc2O[C@H]1CN(C)S(=O)(=O)c1ccccc1,-1.7,i
O=C(C[C@H]1C[C@H]2c3cc(NC(=O)NC4CCCC4)ccc3O[C@H]2[C@H](CO)O1)NCc1ccccn1,-6.9,i
CC=Cc1ccc2n(c1=O)C[C@@H]1[C@@H](CO)[C@H](C(=O)NCc3ccc(F)cc3)[C@H]2N1C (mixture of isomers),2.9,i
CN1C(=O)c2cc(NC(=O)C3CCCCC3)ccc2OC[C@@H]2O[C@@H](CC(=O)NCCc3ccncc3)CC[C@@H]21,-0.9,i
CO[C@@H]1CN(C)C(=O)c2ccc(NC(=O)NC(C)C)cc2OC[C@@H](C)N(C(=O)CN(C)C)C[C@@H]1C,-2.7,i
COc1ccc(-c2ccc3c(c2)[C@@H]2[C@@H](CCN2C(=O)c2ccncc2)[C@@H](CO)N3C)cc1,-4.6,i
COCC1=C2[C@@H](CCc3ccccc3)OB(O)C[C@@H]2n2c(=O)n(-c3ccccc3)c(=O)n2C1,-0.4,i

# These rows are one share of the data; rates above refer to the full screens.
